NPYLR7 ag: activates Aedes aegypti NPYLR7 receptor; HEK293T NPYLR7/Galpha15, GCaMP6s calcium fluorescence; activation, % at 10 µM; hit rate 0.15% among 270,000; AID 1259423; in the data active = activation above about 40%;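 note: 0% = vehicle and 100% = reference agonist at the receptor; some compounds past the cut are filed as inactive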
NPYLR7 ag max-min: recorded beside NPYLR7 ag, whose call it bears; activation, %; measured here: Max-Min RFU normalised activation; some inactives read as strong as hits;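 span of the calcium signal over five minutes; 0% = vehicle and 100% = native peptide agonist; compound fluorescence can raise it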
Numbers without * were called inactive; & = joins results of further samples. Not all compounds are listed; count on the stated rates, not on these rows.

SMILES	NPYLR7 ag	NPYLR7 ag max-min
CCOCCCN(CC(=O)c1c(C)c(C(=O)OCC)n(CC)c1C)S(=O)(=O)c1ccc(Br)cc1	18.1	23.7
CC1CN(C(=O)c2ccn[nH]2)CC(c2ccc(F)cc2)O1 (centres undefined)	-4.4	-7.3
Cc1cc(C(=O)NCCc2ccc(Cl)cc2Cl)n2nc(-c3ccccc3)cc2n1	17.8	16.1
O=C(CCOc1ccccc1)NC1CC(=O)N(Cc2cccc(F)c2)C1 (centres undefined)	20.0	20.3
O=C(NCC1CCCO1)C1CCN(C2CCN(C(=O)CCC3CCCCC3)CC2)CC1 (centres undefined)	4.0&0.1	1.6&0.1
CCN1C(=O)NC(c2ccccc2[N+](=O)[O-])C(C(=O)OC(C)C)=C1C (centres undefined)	0.8	-2.1
Cc1ccc(C(c2ccccc2)N2CCN(C(=O)COCc3ccccc3)CC2)cc1 (centres undefined)	17.0	0.2
CC(C)(C)c1nc(CN2CCC(c3ccccc3C(=O)O)C2)no1 (centres undefined)	0.9	-4.8
CCCn1cc(CN2CCN(Cc3ccc(OC)c(C)c3)C(CCO)C2)c(C)n1 (centres undefined)	-5.7	-6.1
CCC1CN(Cc2cncn2CC(C)C)CCC(=O)N1Cc1ccccc1 (centres undefined)	10.5	6.4
O=C(CCc1ccccc1)NC1CCN(c2ccccc2C(=O)NCC2CCCO2)CC1 (centres undefined)	22.5	33.4
Cc1sc(NC(=O)CC2(CC(=O)O)CCCCC2)c(C#N)c1C	-1.6	2.3
O=C(O)c1ccc(O)c(-c2ccccc2)c1	10.2	4.2
CCCc1cc(NC(C)CC)n2nc(C)c(-c3ccccc3)c2n1 (centres undefined)	5.7	5.3
O=C(C[C@@H]1C[C@@H]2C=C[C@H]1C2)NCc1cccnc1Oc1ccccc1F	-5.0	-5.9
Cc1cn(CCCO)c(=O)[nH]c1=S	8.6	8.9
COc1ccccc1Nc1cc(N2CCOCC2)c2nonc2c1[N+](=O)[O-]	-7.6	-19.1
Cc1ccc(O)c(CN2CCCn3cccc3C2c2ccc([N+](=O)[O-])cc2)c1 (centres undefined)	0.0	7.1
CC(C)c1nc(CNc2nccc(CCC(F)(F)F)n2)cs1	12.1	7.6
COc1ccc(C(=O)N2CCCC(Nc3cc(C)ccc3F)C2)cc1 (centres undefined)	-0.3	3.3
O=C1c2ccc(-c3nc4ccccc4c(=O)o3)cc2C(=O)N1c1ccccn1	0.7	-6.3
C/C(=N/NC(=O)CSCc1cc(C)cc(C)c1)c1ccc(Br)cc1	-6.2	-7.2
CC1(C)[C@H]2CC=C(CN3CCC4(CC3)C(=O)N(CC(N)=O)C(=O)N4CCc3ccccc3)[C@@H]1C2	12.5	2.9
Cc1ccc(-c2cc(C(=O)Nc3ccccc3C(N)=O)c3ccccc3n2)cc1C	0.2	3.5
COc1cc(-c2cc(C(=O)NCCCc3ccccc3)c3ccccc3n2)cc(OC)c1OC	11.5	12.1
CC1CCC(C(C)C)C(OCC(=O)Nc2ccc3[nH]c(=O)[nH]c3c2)C1 (centres undefined)	0.7	0.7
O=C(Nc1ccc(-c2nc3ccccc3o2)c(O)c1)c1ccc(Cl)cc1	10.5	11.2
CCSc1nnc(NC(=O)CSc2nnc(CNC(=O)c3c(F)cccc3Cl)n2-c2ccccc2OC)s1	-4.4	3.7
O=C(c1cccc(C(F)(F)F)c1)N1CCC2(CC1)SCCN2C(=O)c1cccc(Cl)c1	-13.8	-1.0
Cc1cccc(C(=O)N2CCSC23CCN(C(=O)NC2CCCCC2)CC3)c1	7.6	0.0
O=C(C1=C2SC=C(c3ccc(Br)cc3)N2CC1)c1cncc(Br)c1	4.2	5.5
CN(C)CCNC(=O)[C@@]1(OCc2ccc(F)cc2)CC(OCc2ccc(C(F)(F)F)cc2)[C@@H]2OC(C)(C)O[C@@H]2C1 (some centres undefined)	4.1	12.9
CN(Cc1ccccn1)Cc1cn(C)nc1-c1ccc(C2CCCCC2)cc1	13.6	3.2
Cc1ccoc1C(=O)N(C)CCCc1cnn(C)c1	-0.3	-0.1
CC(=O)Nc1ccc(CNC(=O)CNC(C)c2cnn(C)c2)cc1 (centres undefined)	-3.8	-12.8
O=C1NCCCCC1n1nnc(-c2ccc(F)cc2)n1 (centres undefined)	8.5&-0.6	4.8&-2.1
O=C(CCc1nnc(-c2ccc3c(c2)OCO3)o1)N1CCN(C(=O)c2cccs2)CC1	-1.1&-3.1	-2.5&-7.0
COc1cccc(C(Nc2ncc(Br)cn2)C(C)(C)C)c1 (centres undefined)	0.4	-8.9
O=[N+]1C=C(c2cccc(C(F)(F)F)c2)N([O-])C2CCCCC21 (centres undefined)	-2.8	-11.2
CCn1nnc2c(Nc3ccc(Br)c(C)c3)ncnc21	-8.8	-6.4
Nc1nnc(C2CCC(=Cc3ccc(Cl)cc3Cl)C2=O)s1 (centres undefined)	0.3	7.8
COCCCNC(=O)CN1CN(c2ccccc2)C2(CCN(C(=O)c3ccccc3C)CC2)C1=O	24.7	24.6
CCc1ccc(OCCN(C)C(=O)c2cn[nH]c2C)cc1	-1.1	-5.9
CC1(C(=O)Nc2cccc(Oc3ccccc3)c2)CCN1Cc1cc2ccccc2o1 (centres undefined)	-1.4	0.2
CC1=C(C(=O)Nc2ccccc2C)C(c2cccnc2)n2nc(SCc3ccccc3)nc2N1 (centres undefined)	-4.6	-6.1
COCOc1cccc(CN2CCC2(C)C(=O)Nc2ccc(C)c(O)c2)c1 (centres undefined)	8.4	2.9
Cc1ccc(NC(=O)CN(C)C(=O)c2cccc(F)c2)nc1	4.3	7.4
CC1C(=O)N(c2cccc(C(F)(F)F)c2)CCN1C(=O)c1cccc(Br)c1 (centres undefined)	-3.3	1.6
CCC(O)C1CCN(c2ccc(-c3ccccc3OC)nn2)CC1 (centres undefined)	2.4	1.7
O=C(CN1CCOC1=O)N1CCCC(N2CCN(Cc3ccc4c(c3)OCO4)CC2)C1 (centres undefined)	0.4&0.1	-3.0&-0.3
New compounds follow:
SMILES	NPYLR7 ag	NPYLR7 ag max-min
O=C1O[C@@H]2[C@@H]3NC(=S)N(CC4CCCCC4)[C@@H]3[C@H]1C[C@H]2O	-9.4	-17.0
CCN(CC1CCCO1)C(=O)CCc1nnc(Cc2c[nH]c3ccccc23)o1 (centres undefined)	6.9	11.8
Cc1cc(C)cc(C(=O)Nc2ccc(Nc3ccc(-n4cccn4)nn3)cc2)c1	-1.6	-8.1
FC(F)(F)c1cccc(N2CCN(Cn3nc(-c4ccncc4)oc3=S)CC2)c1	-3.6	-7.6
CC(C)CCn1c(N2CCCCCC2)nc2c1c(=O)[nH]c(=O)n2C	-9.7	-10.3
O=C(Nc1cccc(Cl)c1)N1CCN(C(C(=O)N2CCc3ccccc3C2)C2CCCC2)CC1 (centres undefined)	15.5	15.1
Cc1nc(CN2CC(OCc3ccncc3)CN(Cc3ccc(F)cc3F)CC2=O)cs1 (centres undefined)	20.0	7.2
Cc1nccnc1-c1ccc(-c2ccn[nH]2)cc1	18.0	6.2
COc1cc(/C=C/C(=O)Oc2coc(CSc3nccn3C)cc2=O)cc(OC)c1OC	-8.9	-11.0
COc1cc(C)c(S(=O)(=O)Nc2ccc(-c3ccc(N4CCN(C)CC4)nn3)cc2)cc1C	7.6	0.2

In the list so far, these have fluorine.
SMILES	NPYLR7 ag	NPYLR7 ag max-min
CC1CN(C(=O)c2ccn[nH]2)CC(c2ccc(F)cc2)O1 (centres undefined)	-4.4	-7.3
O=C(CCOc1ccccc1)NC1CC(=O)N(Cc2cccc(F)c2)C1 (centres undefined)	20.0	20.3
O=C(C[C@@H]1C[C@@H]2C=C[C@H]1C2)NCc1cccnc1Oc1ccccc1F	-5.0	-5.9
CC(C)c1nc(CNc2nccc(CCC(F)(F)F)n2)cs1	12.1	7.6
COc1ccc(C(=O)N2CCCC(Nc3cc(C)ccc3F)C2)cc1 (centres undefined)	-0.3	3.3
CCSc1nnc(NC(=O)CSc2nnc(CNC(=O)c3c(F)cccc3Cl)n2-c2ccccc2OC)s1	-4.4	3.7
O=C(c1cccc(C(F)(F)F)c1)N1CCC2(CC1)SCCN2C(=O)c1cccc(Cl)c1	-13.8	-1.0
CN(C)CCNC(=O)[C@@]1(OCc2ccc(F)cc2)CC(OCc2ccc(C(F)(F)F)cc2)[C@@H]2OC(C)(C)O[C@@H]2C1 (some centres undefined)	4.1	12.9
O=C1NCCCCC1n1nnc(-c2ccc(F)cc2)n1 (centres undefined)	8.5&-0.6	4.8&-2.1
O=[N+]1C=C(c2cccc(C(F)(F)F)c2)N([O-])C2CCCCC21 (centres undefined)	-2.8	-11.2
Cc1ccc(NC(=O)CN(C)C(=O)c2cccc(F)c2)nc1	4.3	7.4
CC1C(=O)N(c2cccc(C(F)(F)F)c2)CCN1C(=O)c1cccc(Br)c1 (centres undefined)	-3.3	1.6
FC(F)(F)c1cccc(N2CCN(Cn3nc(-c4ccncc4)oc3=S)CC2)c1	-3.6	-7.6
Cc1nc(CN2CC(OCc3ccncc3)CN(Cc3ccc(F)cc3F)CC2=O)cs1 (centres undefined)	20.0	7.2

Other records
SMILES	NPYLR7 ag	NPYLR7 ag max-min
CCOC(=O)CCn1c(=O)c2c(nc3n(C(C)CC)c(C)c(C)n23)n(C)c1=O (centres undefined)	-5.0	-10.1
O=c1oc2cc(O)ccc2cc1-c1nnc(Nc2ccc(Cl)cc2Cl)s1	-8.3	-10.3
CC1(C)C(c2ccccc2)=NC(c2ccccc2)=[N+]1[O-]	-1.3	-11.1
CC1=C(C(=O)OC(C)C)C(c2ccccc2[N+](=O)[O-])C2=C(CCCC2=O)N1 (centres undefined)	1.7	0.8
O=C(Cc1cccs1)N1CCCN(C(=O)CN2CCc3sccc3C2c2cccc(F)c2)CC1 (centres undefined)	5.8	-1.1
COc1ccc(CCNC(=O)Cn2ccn3nc(-c4ccc(C)cc4)cc3c2=O)cc1OC	1.2	-2.2
COc1ccc(S(=O)(=O)N2CCC(CCc3ccc4c(c3)OCO4)CC2)cc1	6.5	3.2
CCCc1cc(NCCOCCO)n2nc3nc(C)cc(C)c3c2n1	4.7	3.0
CCOc1ccccc1N1CCN(C(=O)c2cc(-c3ccccc3OC)n3nc(C)c(-c4ccccc4)c3n2)CC1	-7.2	2.1
CCC(C)Nc1nc(SC)nc(-c2ccccc2)c1C#N (centres undefined)	-11.7	-17.3
N=C1C(c2ccccc2)C(=O)CN1c1cccc(F)c1 (centres undefined)	-0.2	-1.2
CCCCNC(=O)CCC(=O)c1ccc2ccccc2c1	8.7	7.4
CC(C(=O)NC(C)(C#N)C(C)C)N1CCCc2ccccc21 (centres undefined)	-2.2	-6.4
O=S(=O)(Nc1ccc(-n2cnnn2)cc1)c1ccc(OC(F)(F)F)cc1	2.0	1.2
COc1ccc(OC)c(S(=O)(=O)n2ccnc2-c2ccccc2)c1	1.4	7.0
COc1ccc(CN(CCN(C)C)C(=O)c2cccc(F)c2)cc1OS(=O)(=O)C(C)C	0.9	8.6
O=C(CC(=O)N1CCCC1)N1CCCC1	-0.2	-11.8
COc1ccc(NC(=O)C2(C)CCN(C)C2)cc1OC (centres undefined)	2.4	1.3
CCOC(=O)c1nc2ccccc2nc1N1CCN(S(=O)(=O)c2ccc(OC)cc2)CC1	12.7	0.4
Cc1c(C#N)c2nc3ccccc3n2c(=O)c1=CNc1ccc2c(c1)OCO2	15.2	7.7

Entries of single compounds as entered above:
`COc1ccc(CN(CCN(C)C)C(=O)c2cccc(F)c2)cc1OS(=O)(=O)C(C)C` is listed as NPYLR7 ag = 0.9; NPYLR7 ag max-min = 8.6
`COc1ccc(OC)c(S(=O)(=O)n2ccnc2-c2ccccc2)c1` is listed as NPYLR7 ag = 1.4; NPYLR7 ag max-min = 7.0

The list continues.
SMILES	NPYLR7 ag	NPYLR7 ag max-min
CSCCCNC(=O)c1ccc(-c2cc(-c3cccc4ccccc34)[nH]n2)cc1	17.3	14.8
COc1ccc(-n2c(C3CC3)n[nH]c2=S)cc1	-4.5	-0.8
O=C(Nc1ccc(Cl)c(Cl)c1)c1occc1COc1ccccc1	10.6	7.1
O=[N+]([O-])c1ccc(Cl)c(OC2=NS(=O)(=O)c3ccccc32)c1	-11.2	-19.7
COc1cc2nc(C(C#N)C(=O)CSC(C)=O)[nH]c(=O)c2cc1OC (centres undefined)	5.8	2.7
Cn1nc(C(C)(C)C)cc1C(=O)N1CCCCC1c1cc(C(=O)Nc2ccccc2)no1 (centres undefined)	7.7	5.4
Cc1ccc(OCCCOc2ccc(CO)nc2)cc1C	-3.3	-3.6
C=CCCC(O)CN(CCOC)Cc1cccs1 (centres undefined)	5.2	4.9
Cc1cccc(Cn2c(=O)c3c(nc4n(CCCN5CCOCC5)c(C)c(C)n34)n(C)c2=O)c1	5.8	5.4
COc1ccccc1S(=O)(=O)Nc1nc(SC(C)C)n[nH]1	1.3	-0.7
